Polio RdRp inh = poliovirus RdRp elongation inhibitors, primary screen, biochemical, fluorescence polarization, total intensity; poliovirus polymerase elongation; stronger effect = lower value; % elongation, % (compound at 16.7 µg/mL); 150,000 tested, 0.66% active; in the data active means % elongation below about 90%; further: some results filed as inactive read as strong as hits
Target sequence (P03300 1749-2209 limits assumed): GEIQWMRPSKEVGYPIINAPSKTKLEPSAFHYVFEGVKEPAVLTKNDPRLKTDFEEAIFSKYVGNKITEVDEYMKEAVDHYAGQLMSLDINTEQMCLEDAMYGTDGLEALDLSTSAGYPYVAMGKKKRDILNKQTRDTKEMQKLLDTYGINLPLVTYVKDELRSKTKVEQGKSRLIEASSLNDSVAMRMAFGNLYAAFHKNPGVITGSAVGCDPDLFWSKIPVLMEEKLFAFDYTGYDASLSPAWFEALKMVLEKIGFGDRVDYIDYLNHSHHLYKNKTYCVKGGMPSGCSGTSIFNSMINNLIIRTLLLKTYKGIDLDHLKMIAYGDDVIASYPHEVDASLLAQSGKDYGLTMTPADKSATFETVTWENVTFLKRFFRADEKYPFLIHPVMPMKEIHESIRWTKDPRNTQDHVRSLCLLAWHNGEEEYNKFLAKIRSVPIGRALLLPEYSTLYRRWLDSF
Mtb MbtI inh = MbtI salicylate synthase inhibitors, primary screen, biochemical, fluorescence intensity; inhibition, %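 (about 17 µg/mL by stock and volumes)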; P9WFX0; purified MbtI enzyme, fluorescence intensity read-out; 100,000 tested, 0.89% active;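 active means above 50% in both replicates, above 80% if mildly self-fluorescent; inactive means the rest, strongly fluorescent compounds included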;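 further: 0% = mean of negative and 100% = mean of positive controls; one replicate is shown; some compounds called inactive have numbers as strong as hits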
Mtb MenB inh = M. tuberculosis MenB inhibitors, primary screen, biochemical, absorbance; inhibition, %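 (about 12 µg/mL by stock and volumes)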; 1,4-dihydroxy-2-naphthoyl-CoA synthase (Mycobacterium tuberculosis (strain ATCC 25618 / …; 100,000 tested, 0.43% active; MenB enzyme assay, absorbance read-out; some hits fall short of the stated cut;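 active means mean of two replicates above 30%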;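 further: 0% = no compound and 100% = wells with inactive enzyme; the first replicate is given; strong numbers were not always called active; inactives centre near -10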
Target sequence (P9WNP5 whole entry, looked up): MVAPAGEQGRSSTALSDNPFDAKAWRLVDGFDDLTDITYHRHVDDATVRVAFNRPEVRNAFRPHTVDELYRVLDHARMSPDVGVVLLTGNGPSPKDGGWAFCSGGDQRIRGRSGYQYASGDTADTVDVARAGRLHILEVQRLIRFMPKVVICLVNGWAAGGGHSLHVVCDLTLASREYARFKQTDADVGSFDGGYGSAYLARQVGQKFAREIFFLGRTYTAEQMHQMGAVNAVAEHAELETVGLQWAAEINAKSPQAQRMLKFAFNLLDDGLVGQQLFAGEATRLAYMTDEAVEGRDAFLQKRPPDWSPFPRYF
Polio RdRp inh intensity = also measured in Polio RdRp inh; calls as there; % elongation; measured here: total intensity read-out; formula for this scale not given here;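 total fluorescence in place of polarization; lower means less elongation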
* hit, by the source's call; i = inactive; . = not tested or not shown.

No.	Compound	Polio RdRp inh	Polio RdRp inh intensity
1	Cc1cc(C)nc(SCCS(=O)(=O)c2ccc(C(C)(C)C)cc2)n1	100	104
2	CC(C)C(=O)Nc1ccc(C2=Nn3cc(-c4ccccc4)nc3SC2C)cc1 (stereo not drawn)	102	95
3	O=C1CS/C(=N\N2CCOCC2)N1Cc1ccccc1	101	102
4	NC(=O)c1c(C(F)(F)F)cc(C(F)(F)F)cc1C(F)(F)F	103	98
5	O=C(O)CC1NC(=O)N(c2ccccc2)C1=O (stereo not drawn)	100	100
6	Nn1c(SCCN2C(=O)c3ccccc3C2=O)nnc1-c1ccccc1Br	107	110
7	CCOc1ccc(N(C(C)C(=O)N(C)Cc2ccccc2)S(C)(=O)=O)cc1 (stereo not drawn)	99	102
8	COc1cc(-c2nnc(COc3cc(C(F)(F)F)cc(C(F)(F)F)c3)o2)cc(OC)c1OC	106	111
9	Cc1noc(/C=C/N(C)C)c1S(=O)(=O)N1CCC(C(=O)O)CC1	98	100
10	CN(c1nc(N)c(C#N)c(CC#N)c1C#N)C1CCS(=O)(=O)C1 (stereo not drawn)	109	99
11	CN(C(=O)CS)c1nc2c3ccccc3ncn2n1	125	212
12	CCC(C)NC(=O)Cn1cnc2c1c(=O)n(C)c(=O)n2C (stereo not drawn)	102	106
13	O=C(COC(=O)c1ccc[nH]c1=O)NC(c1ccccc1)c1ccccc1	102	108
14	CN(C)c1ccc(CNc2nc3ccccc3n2CCN2CCCCC2)cc1	103	107
15	COc1ccccc1NC(=O)CCN1CC(C)CC(C)C1 (stereo not drawn)	101	103

No.	Mtb MbtI inh	Mtb MenB inh
1	-7	-7
2	37	5
3	-10	27
4	-12	-2
5	-9	-6
6	-2	-35
7	6	-5
8	-1	-3
9	-8	-6
10	22	9
11	9	-23
12	-17	2
13	23	-5
14	-3	.
15	-1	0

New compounds follow:
No.	Compound	Polio RdRp inh	Polio RdRp inh intensity
16	COc1cccc(/C=N/n2cnnc2)c1OC	104	100
17	CCS(=O)(=O)c1ccc2oc(Nc3ccc(C(C)C)cc3)nc2c1	70*	75*
18	COC(=O)c1c(N)n(C2CCCC2)c2nc3ccccc3nc12	99	100
19	O=C(NCc1ccc2c(c1)OCO2)c1ccc(CN2CCOCC2)cc1	107	101
20	COc1cccc(C(=O)Cn2c(=O)n(CCC(=O)NCC3CCCO3)c(=O)c3cc(OC)c(OC)cc32)c1 (stereo not drawn)	104	103
21	C(=Nc1cccnc1)c1c[nH]c2ccccc12	112	125
22	CC(=O)n1c(O)c(/C=C2\C=c3ccc(C)cc3=NC2=O)sc1=N	96	121
23	Cc1sc2nc3c4ccccc4c(N4CCC(C)CC4)nn3c(=O)c2c1C	103	107
24	CCn1cc(C(=O)N2CCC(C(=O)OC)CC2)c(=O)c2ccc(C)nc21	104	99
25	O=c1[nH][nH]c(=O)c2ncccc12	.	.
26	O=C(COC(=O)c1cc[n+]([O-])cc1)Nc1ccccc1Cl	104	109
27	O=C(O)CCSCCc1ccncc1	101	103
28	COc1ccc(C(CCN)C(C)C)cc1 (stereo not drawn)	102	103
29	CCOC(=O)C1CCN(C(=O)COC(=O)c2ccc(Br)cc2)CC1	104	105
30	Cc1ccc(S(=O)(=O)N(C)c2ccccc2)cc1	101	109

No.	Mtb MbtI inh	Mtb MenB inh
16	10	-26
17	65	-20
18	-93	-5
19	-8	-56
20	-7	-15
21	.	2
22	-13	-12
23	-8	-14
24	4	10
25	1	-35
26	1	.
27	-8	-8
28	-9	-4
29	-3	-2
30	11	-24

(listing goes on)
No.	Compound	Polio RdRp inh	Polio RdRp inh intensity
31	COc1ccc(N=Cc2ccc(Sc3ccccn3)o2)cc1	100	101
32	CC1CN(C(=O)CCC(=O)O)CC(C)O1 (stereo not drawn)	101	103
33	Nc1nc(C2COc3ccccc3O2)ncc1S(=O)(=O)c1ccc(Cl)cc1 (stereo not drawn)	103	103
34	CCOC(=O)CCc1c(C)nn(-c2ccc(N3CCOCC3)nn2)c1C	103	103
35	COc1ccc2c(CC(=O)OCC(=O)Nc3c(C)n(C)n(-c4ccccc4)c3=O)coc2c1	106	103
36	O=C1C=C(c2ccccc2)OC2(CCCCC2)O1	103	103
37	CCOc1cc(/C=C2\C(=O)Nc3ccccc32)ccc1O	99	105
38	CCOC(=O)c1oc2ccccc2c1COC(=O)[C@H](C)NC(=O)c1ccco1	104	97
39	CN(C)CCC(C)(O)Cc1ccccc1 (stereo not drawn)	97	96
40	Cc1[nH][nH]c(=O)c1N=Nc1ccc(S(=O)(=O)N2CCCCC2)cc1	107	106
41	CCCn1c(O)c(C2=NC(=S)NC2=O)c2ccccc21	102	103
42	Cn1c(=O)c2c(ncn2CC(=O)Nc2ccncc2)n(C)c1=O	101	105
43	COc1ccc(-n2nc(C(=O)O)c(C)c(C#N)c2=O)cc1	101	101
44	C=CCNC(=O)CN1CCC(n2c(C)nc3cc(C(F)(F)F)ccc32)CC1	105	103
45	Cc1ccc(CSc2nnc(-c3cnccn3)s2)cc1	101	104

No.	Mtb MbtI inh	Mtb MenB inh
31	.	0
32	-25	-8
33	0	-17
34	-2	17
35	-1	-1
36	12	3
37	2	.
38	26	4
39	.	-16
40	2	-47
41	3	-7
42	-7	-2
43	6	-5
44	-6	-330
45	1	1

Next compounds
No.	Compound	Polio RdRp inh	Polio RdRp inh intensity
46	COc1cc(S(=O)(=O)N2CCN(Cc3ccc4c(c3)OCO4)CC2)c(OC)cc1C	102	100
47	CCS(=O)(=O)c1nc2ccccc2n1CC(N)=O	101	102
48	COc1ccc(-n2nc3cc(C)c(NC(=O)c4ccc(-c5cccc(Cl)c5C)o4)cc3n2)cc1	101	103
49	CCc1ccc(CN2CCC(C(=O)N(C)CCc3ccc(OC)c(OC)c3)CC2)cc1	103	104
50	Cc1ccc(N(C)C(=O)c2cc(S(=O)(=O)N3CCCCC3)c[nH]2)cc1	103	103
51	CCOC(=O)c1c(C)csc1NC=C(C#N)C#N	104	106
52	CCn1cc(S(=O)(=O)N2CCOCC2)cn1	101	101
53	O=c1cc(CSc2nnc(-c3cccc(S(=O)(=O)N4CCOCC4)c3)n2C2CCCCCC2)nc2sccn12	99	100
54	COc1ccc(/C=C/C(=O)N2CC(C)OC(C)C2)cc1OC (stereo not drawn)	100	104
55	OCCN(Cc1ccccc1)Cc1ccccc1C(F)(F)F	100	104
56	COc1ccc(NC(=S)N(C)Cc2c(C)nn(C)c2C)c(OC)c1	100	100
57	CN(C)/C=C(\C#N)c1nc2ccccc2s1	118	166
58	CC(C)N1C(=O)C2(N=C(N)Nc3nc4ccccc4n32)c2ccccc21 (stereo not drawn)	106	122
59	O=C1CCCc2cc(S(=O)(=O)N3CCCC(C(=O)NCCc4ccccc4)C3)ccc2N1 (stereo not drawn)	100	103
60	CCSc1nnc2n(/N=C/c3cccs3)cnn12	104	107

No.	Mtb MbtI inh	Mtb MenB inh
46	-6	-21
47	14	18
48	19	5
49	-9	-22
50	5	-10
51	-5	-23
52	-3	7
53	-8	-7
54	-15	-12
55	2	-6
56	-3	5
57	9	20
58	1	-6
59	3	9
60	.	-3

Reprinted: entries 48–60
No.	Compound	Polio RdRp inh	Polio RdRp inh intensity
48	COc1ccc(-n2nc3cc(C)c(NC(=O)c4ccc(-c5cccc(Cl)c5C)o4)cc3n2)cc1	101	103
49	CCc1ccc(CN2CCC(C(=O)N(C)CCc3ccc(OC)c(OC)c3)CC2)cc1	103	104
50	Cc1ccc(N(C)C(=O)c2cc(S(=O)(=O)N3CCCCC3)c[nH]2)cc1	103	103
51	CCOC(=O)c1c(C)csc1NC=C(C#N)C#N	104	106
52	CCn1cc(S(=O)(=O)N2CCOCC2)cn1	101	101
53	O=c1cc(CSc2nnc(-c3cccc(S(=O)(=O)N4CCOCC4)c3)n2C2CCCCCC2)nc2sccn12	99	100
54	COc1ccc(/C=C/C(=O)N2CC(C)OC(C)C2)cc1OC (stereo not drawn)	100	104
55	OCCN(Cc1ccccc1)Cc1ccccc1C(F)(F)F	100	104
56	COc1ccc(NC(=S)N(C)Cc2c(C)nn(C)c2C)c(OC)c1	100	100
57	CN(C)/C=C(\C#N)c1nc2ccccc2s1	118	166
58	CC(C)N1C(=O)C2(N=C(N)Nc3nc4ccccc4n32)c2ccccc21 (stereo not drawn)	106	122
59	O=C1CCCc2cc(S(=O)(=O)N3CCCC(C(=O)NCCc4ccccc4)C3)ccc2N1 (stereo not drawn)	100	103
60	CCSc1nnc2n(/N=C/c3cccs3)cnn12	104	107

No.	Mtb MbtI inh	Mtb MenB inh
48	19	5
49	-9	-22
50	5	-10
51	-5	-23
52	-3	7
53	-8	-7
54	-15	-12
55	2	-6
56	-3	5
57	9	20
58	1	-6
59	3	9
60	.	-3

The list continues:
No.	Compound	Polio RdRp inh	Polio RdRp inh intensity
61	CCC(CC)=NNC(=O)c1ccc(Cl)cc1	102	95
62	CSc1c(C#N)c(-c2cccs2)nn1CNC(=O)Nc1ccccc1C(F)(F)F	113	115
63	Nc1ccccc1C(=O)NCCc1ccccc1	100	106
64	Cc1onc(-c2ccccc2)c1N1C(=O)CCN(C(C)C)C1=O	102	105
65	COc1ccc(-n2cc(C(=O)N(C)Cc3ccco3)c3ccccc3c2=O)cc1	103	102
66	CCc1nnc(NC(=O)c2ccc(S(=O)(=O)N3CC(C)CC(C)C3)cc2)o1 (stereo not drawn)	101	100
67	CC(CNC(=O)c1nnc(-c2ccc3c(c2)OCO3)o1)c1ccccc1 (stereo not drawn)	103	102
68	Nc1nc(N)nc(CN2CCCC2c2nc3ccccc3s2)n1 (stereo not drawn)	101	107
69	O=C(CCNc1n[nH]c(=O)[nH]c1=O)N1CCCCC1	101	105
70	COc1cc(C)c(NS(C)(=O)=O)cc1C(C)C	102	102
71	CC1CCCCN1S(=O)(=O)c1ccc(C(=O)O)cc1 (stereo not drawn)	105	108
72	C=C(c1ccccc1)c1ccc(N(C)C)cc1	101	102
73	CCC1(CC)Cc2ccccc2-c2nc(NN)n(Cc3ccccc3)c(=O)c21	105	99
74	COc1ccc(-n2nc3c(c2NC(C)=O)CSC3)cc1	99	100
75	O=S(=O)(c1ccccc1)N1CCN(S(=O)(=O)c2ccc(Cl)cc2)CC1	101	103

No.	Mtb MbtI inh	Mtb MenB inh
61	-2	3
62	2	-4
63	101	-11
64	-1	-5
65	-46	-12
66	-2	-13
67	-123	12
68	-2	3
69	1	16
70	-11	-27
71	.	-9
72	62	-3
73	i	-89
74	14	-21
75	-12	4

The list continues.
No.	Compound	Polio RdRp inh	Polio RdRp inh intensity
76	CC(=O)Oc1ccccc1-c1nc(C)no1	94	93
77	CNc1ccccc1C(C)(C)c1cc(-c2ccco2)n[nH]1	102	107
78	C=CCN1C(=NC(=O)C(CC)CC)SC2CS(=O)(=O)CC21 (stereo not drawn)	100	101
79	CCOC(=O)c1c(C)n(C(=O)c2ccco2)c(=O)n1C(=O)c1ccco1	99	100
80	CN1/C(=C\P(=O)(C2CCCCC2)N2CCOCC2)C(C)(C)c2ccccc21 (stereo not drawn)	119	157
81	CCOc1ccc(NCC(=O)n2nc(C)cc2C)cc1	102	103
82	Cn1c(N)c(S(=O)(=O)NC2CCCCC2)c(=O)n(C)c1=O	101	102
83	Cc1ccn2c(=O)c(NC(=O)COc3ccccc3)c(C)nc2c1	108	105
84	COc1ccccc1CNC(=O)c1cc(C)c2c(C)nn(-c3ccccc3Cl)c2n1	102	104
85	CCOC(=O)c1oc2ccc3c(c2c1C)C(=O)CC1(CCC(C)CC1)O3 (stereo not drawn)	102	102
86	CC1CCCC(NC(=O)/C=C2\Sc3ccccc3NC2=O)C1C (stereo not drawn)	101	107
87	CCOc1ccccc1N(C)C(=O)Cc1c(C(=O)O)c(C)cn1C	99	103
88	CCC(C(=O)NC1CCC(C)CC1)n1c2ccccc2c2cn[nH]c(=O)c21 (stereo not drawn)	101	104
89	CCOC(=O)c1ccc(N2CC(O)=C(c3nc4ccccc4s3)C2=N)cc1	101	113
90	CC(C)OCCCNc1ncnc2ccccc12	102	104
91	NC(=O)COC(=O)c1cncc(Br)c1	89	115
92	O=C(c1cc2c(s1)CCCC2)N1CCCC1c1nc2ccccc2s1 (stereo not drawn)	104	109

No.	Mtb MbtI inh	Mtb MenB inh
76	-15	-20
77	-3	.
78	-23	-14
79	40	21
80	8	-3
81	.	-6
82	16	14
83	4	-11
84	4	-4
85	-3	-21
86	-14	-21
87	1	17
88	19	-3
89	-104	-1
90	9	4
91	-10	.
92	-12	-8

High-throughput results deposited in PubChem BioAssay by ICCB-Longwood Screening Facility, Harvard Medical School.

Rows were taken by chance; about 1.8% have a hit in one of these screens.
